# High-throughput results: PubChem, National Center for Advancing Translational Sciences (NCATS)
# Six1-Eya2 inh – blocks human Six1 binding to Eya2 | Q15475+O00167 | AlphaScreen GST-Six1/His-Eya2 binding, biochemical; hits give low values; control for the full effect not named in the record | activity change, % (concentration not given with the values) | 360,000 compounds, 0.56% hits | AID 651725; in the data active = activity change below about -65%; inconclusive = about -30% to -65%; inactive = above about -30%; further: on the % scale 0 is the no-effect control and ±100 the full control effect
# Target sequence (O00167 whole entry, looked up): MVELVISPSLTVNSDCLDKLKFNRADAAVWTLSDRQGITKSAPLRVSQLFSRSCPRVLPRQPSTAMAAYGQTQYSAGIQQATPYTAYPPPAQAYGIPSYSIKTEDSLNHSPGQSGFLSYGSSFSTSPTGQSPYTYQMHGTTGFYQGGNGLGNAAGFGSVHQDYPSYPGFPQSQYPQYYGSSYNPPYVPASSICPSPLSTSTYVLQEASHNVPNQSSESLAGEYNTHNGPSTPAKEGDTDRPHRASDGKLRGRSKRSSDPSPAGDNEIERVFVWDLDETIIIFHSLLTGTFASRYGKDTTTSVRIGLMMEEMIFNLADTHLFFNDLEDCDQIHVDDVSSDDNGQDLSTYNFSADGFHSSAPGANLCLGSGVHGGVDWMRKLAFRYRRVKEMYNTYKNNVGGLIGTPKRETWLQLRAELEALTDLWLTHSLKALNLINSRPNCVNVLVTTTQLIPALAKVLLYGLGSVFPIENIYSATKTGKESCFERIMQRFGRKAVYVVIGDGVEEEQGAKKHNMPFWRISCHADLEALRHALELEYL
# Target sequence (Q15475 whole entry, looked up): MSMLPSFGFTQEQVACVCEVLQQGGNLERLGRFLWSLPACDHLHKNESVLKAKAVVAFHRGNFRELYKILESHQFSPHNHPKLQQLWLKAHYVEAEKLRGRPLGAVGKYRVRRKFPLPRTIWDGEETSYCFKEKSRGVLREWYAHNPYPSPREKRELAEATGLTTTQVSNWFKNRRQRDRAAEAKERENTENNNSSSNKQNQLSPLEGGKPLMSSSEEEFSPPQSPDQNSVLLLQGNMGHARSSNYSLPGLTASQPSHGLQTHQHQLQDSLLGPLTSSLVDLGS
#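 AlphaScreen with GST-Six1 and His-Eya2 (5X mix: 250 nM and 500 nM), glutathione donor and nickel acceptor beads; buffer 50 mM Tris pH 8.0, 300 mM NaCl, 1 mM TCEP; 1 h at 37 C in the dark.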
# D2 agonist – human D2 receptor agonism in beta-arrestin assay; P14416; AID 624465; 360,000 compounds, 0.084% hits; DiscoveRx PathHunter D2 beta-arrestin, luminescence, 90 min; 100% = 57 uM dopamine signal; activation, % (test concentration not listed); in the data active = activation above about 40%; inconclusive = about 15% to 40%; inactive = below about 15%; further: compound concentration not given in the record; the text of the record calls up to 30% inactive
#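 Agonist mode: compounds alone added to overnight-plated D2 PathHunter cells for 90 min at 37 C, with 57 uM final dopamine (EC100) defining full response. Beta-arrestin recruitment detected by chemiluminescent reagent, read after 1 h at ambient temperature.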
# CtBP-E1A blk – CtBP/E1A binding inhibition. AlphaScreen GST-E1A/His-CtBP binding, 1536-well; hits give low values; control for the full effect not named in the record. activity change, % (no concentration beside the values). 340,000 compounds, 0.49% hits. AID 651724; in the data active means activity change below about -65%; inconclusive means about -30% to -65%; inactive means above about -30%; further: on the % scale 0 is the no-effect control and ±100 the full control effect
#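 Protein mix (5X: 125 nM each GST-E1A, His-CtBP) was incubated with pinned compound 2 h at 37 deg C in dark, in 50 mM Tris pH 8.0 buffer with 300 mM NaCl. Glutathione donor and nickel acceptor beads followed; AlphaScreen signal read after 1 h.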
# TRPV1 potentiator – enhances activation of the human vanilloid receptor TRPV1. potentiation, % at 8.33 µM. TRPV1-expressing cells, Fluo-8 calcium influx, capsaicin EC20 potentiation; host cell line not named in the record; control for the full effect not named in the record. 320,000 compounds, 0.02% hits; active means potentiation above 80%; inconclusive means 30% to 80%; inactive means below 30%; further: 0% is about no effect
#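 Fluo-8 calcium influx in TRPV1-expressing cells, kinetic read (ex 480/em 520 nm). Compound added and read 3 min for agonist activity, followed by capsaicin at EC20 final and 2 min further read for enhancement.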
# PINK1 expr mod – PINK1 expression modulation; 410,000 compounds, 0.2% hits; PINK1 immunofluorescence, high-content cytometry, 24 h; Potency, µM (titrated, usually from 76.6 µM), without a hit: at the highest dose activation (PINK1 increase), most hits filed as activators; AID 624263; active = well fitted activation curve with a large enough effect; inconclusive = small, poorly fitted or top-dose-only effect; inactive = flat fitted curve, though single readings scatter; cell line not stated here;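 further: potency means the concentration at half of the fitted maximal effect; % of control where 0% means no effect; nearly all actives have a fitted effect of over 65% in size; a mitochondrial uncoupler was the plate control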
#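 Compound titrations (5 concentrations, 24 h) on a stable cell line; DMSO and CCCP controls. Endpoint: fixed-cell PINK1 immunofluorescence with mitochondrial, cell and nuclear markers, scanned by microplate cytometer.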
# Sfp PPTase inh – blocks B. subtilis Sfp PPTase activity. Q9F4F7. Biochemical Sfp PPTase activity, qHTS. Potency, µM, without a hit: max response, negative = inhibition, usual class: inhibitors. 310,000 compounds, 3.5% hits. AID 1490; active means well fitted inhibition curve with a large enough effect; inconclusive means small, poorly fitted or top-dose-only effect, or another doubt; inactive means no such curve, though single readings can be large or run the other way;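 further: the enzyme is Sfp with the accession as filed and its product quenches rhodamine fluorescence; potency means the concentration at half of the fitted maximal effect; 0% = enzyme reaction without inhibitor and -100% = no enzyme wells; top concentration of the series not given in the record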
#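 Sfp 15 nM + cpd, 15 min RT; start w/ rhodamine-CoA 5 uM, BHQ-2-YbbR 12.5 uM (final); 50 mM Hepes pH 7.6, 10 mM MgCl2, 0.01% NP-40, 0.01% BSA; read 525/598 nm at 0 and 30 min.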
# D2 potentiator – positive allosteric modulators of human D2 dopamine receptor | P14416 | DiscoveRx D2 beta-arrestin cells, luminescence, 90 min; 100% = 57 uM dopamine signal | potentiation, % (no concentration beside the values) | 360,000 compounds, 0.23% hits; active = potentiation of 50% or more; inconclusive = 30% to 50%; inactive = 30% or less;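 further: compound concentration not given in the record; tested on top of an EC20 dose of dopamine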
#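 PathHunter D2 cells, attached overnight at 37 deg C, received compound in DMSO plus dopamine at EC20 (50 nM final) for 90 min at 37 deg C. Beta-arrestin recruitment was read as luminescence after 1 h with detection reagent at ambient temperature.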
# Active calls of the source: *; ? = inconclusive; · = no result given; [ ] = another dose, or the depositor's remark.
SMILES	Six1-Eya2 inh	D2 agonist	CtBP-E1A blk	TRPV1 potentiator	PINK1 expr mod	Sfp PPTase inh	D2 potentiator
Cc1c(Br)cc(-c2nnco2)cc1Br	6	-0.9	4	-18	-5.8%[38.3 µM]	3%	-12
O=C1CCC/C1=C\c1ccccc1	3	0.9	·	-2	-0.7%	-6%	25
CCCC(=O)OCC(=O)Nc1ccccc1Sc1ccccc1	31	-1.8	0	-9	5.8%	7%	-11
COc1ccc(S(=O)(=O)N2CCC(C(=O)N3CCOCC3)CC2)cc1OC	-2	0.5	7	-2	-1.9%[38.3 µM]	7%	-3
CCc1nc2ccc(C(=O)NCCOc3ccc(OC)cc3)cn2c1N(CC)Cc1ccc(OC)c(OC)c1	-18	-6.9	-22	·	1.3%	·	-13
CC(=O)OC(COc1cccc(C)c1)Cn1cnc2ccccc21 (stereo not given)	13	-5.9	1	-4	0.9%	0%	1
Cc1cccc(C)c1N1C(=O)C2ON(c3ccccc3)C(c3ccncc3)C2C1=O (stereo not given)	-1	-1.2	4	-18	1.4%	-7%	-8
O=C(Cn1ncc2c([nH]c3ccccc32)c1=O)N1CCc2ccccc2C1	5	-0.4	2	3	-0.2%	21%	-10
Cc1ccc(S(=O)(=O)N2CCC(=O)N([C@H](COCc3cccc(C(F)(F)F)c3)C(C)C)CC2)cc1	1	·	4	·	1.0%	·	·
O=C(Cc1ccc(Br)cc1)NCCCn1ccnc1	-16	-1.4	-3	-4	0.7%	7%	-9
CC1=C(O)C(=O)C(C2=C(O)C(=O)C(C)=C(O)C2=O)=C(O)C1=O	-92*	-7.3	-85*	·	4.1%	·	-22
Cc1ccc(CNC(=O)C2CCCN(c3ncnc4c3nc3n4CCCCC3)C2)cc1 (stereo not given)	5	-7.2	·	-9	1.5%	11%	-10
Cc1c(O)nc(SCC(=O)Nc2nccs2)n(-c2ccccc2F)c1=O	0	-3.5	6	11	1.9%	-4%	-12
C#Cc1cccc(C(=O)N(Cc2cccnc2)CC2CCCN(C3CCCCC3)C2)c1 (stereo not given)	-7	1.4	4	·	1.3%	·	-16
CC1CC(C)(C)CC2(C1)NC(=O)N(CC(=O)N1CCN(S(=O)(=O)c3cccc(F)c3)CC1)C2=O (stereo not given)	-16	-0.3	-2	·	-1.8%	·	-6
Cc1ccc(CNC(=O)CSc2nc3ccccc3[nH]2)cc1	-8	-1.7	·	-16	-1.0%	-10%	-19
COc1ccc(-c2nc3ccccc3c(=O)n2CCCn2ccnc2)cc1	6	0.7	-2	?	-2.0%	12%	-7
Cc1ccc(C2C(C#N)=C(N)Oc3cc4c(cc32)OCO4)cc1 (stereo not given)	0	-5.7	0	12	2.2%	4%	-21
COc1cc(NC2=CC(=O)CC(C)(C)C2)cc(OC)c1OC	-3	2.8	0	-2	7.6%	14%	4
CC(=O)NC1C(=O)N=C(SCC(=O)NCc2ccccc2)NC1=O (stereo not given)	6	0.3	-1	-6	·	-23%	-6
CCCN1CCC(=O)N([C@H](CSc2ccc(OC)cc2)CC(C)C)CC1	-13	1.9	-10	-37	-1.2%	9%	-13
Cc1onc(-c2ccccc2Cl)c1C(=O)Nc1ccc(CN2CCCC2)cc1	0	-0.7	-2	3	0.1%	16%	-11
C[C@H](CO)N1C[C@H](C)[C@@H](CN(C)Cc2ccc(C(=O)Nc3ccccc3N)cc2)Oc2c(NC(=O)C3CCCCC3)cccc2C1=O	-26	-2.2	-4	·	0.2%	·	3
CC1(C)Cc2c(C#N)c(N)n(-c3ccccc3)c(=S)c2CO1	3	0.5	12	4	0.8%	12%	-1
O=C(NCc1ccccn1)C1CCC(CNS(=O)(=O)c2cccc3nsnc23)CC1 (stereo not given)	1	-0.3	2	21	0.7%	16%	-3
FC(F)(F)c1ccc(NC2=NCCC2)cc1	10	-1.3	·	-12	0.8%	12%	-6
Cc1cccc(C(=O)OCC(=O)N2CCC(c3ccccc3)=N2)c1O	8	-1.4	-1	4	2.9%	·	-1
COc1ccc2[nH]c(=O)c(CN(CCO)C(=O)c3cccs3)cc2c1	-1	-3.4	2	2	0.1%[38.3 µM]	1%	-9
CC(O)(c1cccnc1)c1nc(-c2cccc3cccnc23)cs1 (stereo not given)	-4	2.7	0	·	4.7%	·	0
CC(C(=O)Nc1cccc([N+](=O)[O-])c1)N1C(=O)NC2(CCCC2)C1=O (stereo not given)	-1	-0.7	8	9	2.1%	14%	2
O=C(Nn1c(-c2ccc(Br)cc2)nc2ccccc2c1=O)c1ccc([N+](=O)[O-])cc1	-11	1.2	-21	2	27%	7%	-3
COc1ccc(Nc2nc(N)c(C(=O)c3ccc(OC)cc3)s2)cc1	16	0.9	-6	-6	-1.1%	-25%	-4
CC(C(=O)Nc1ccc2c(c1)OCO2)n1cnc2c1c(=O)n(C)c(=O)n2C (stereo not given)	-4	-1.4	-12	2	0.1%	·	-1
CCCc1ccc(Oc2cn[nH]c2-c2ccc(O)cc2O)cc1	-5	-4.2	-8	-7	-4.6%[38.3 µM]	8%	4
C=CCNC(=O)c1ccc(S(=O)(=O)CC)c(Cl)c1Cl	11	-5.4	38	-4	3.0%	1%	-6
COc1ccccc1OCCNC(=O)C(CCSC)NS(=O)(=O)c1ccccc1F (stereo not given)	4	-5.1	1	-6	0.6%	·	-22
Cc1cc2oc(=O)cc(CN3CCCCC3)c2cc1Cl	10	-6.1	4	·	0.4%	·	-8
COc1cc(OC)cc(-c2c(C#Cc3ccsc3)c3cc(-c4ccc(N(C)C)nc4)ccc3n2C)c1	6	-5.0	-3	·	-1.4%	·	-9
CC1CCCC(NC(=O)CCNC(=O)c2ccc(Cl)cc2)C1C (stereo not given)	1	-7.2	7	20	-0.7%	·	-28
CCN1CCN(C(=O)c2ccc3nc(-c4ccccc4)c(-c4ccccc4)nc3c2)CC1	-17	-2.3	-2	-1	2.3%	3%	-15

# Sorted by the number under PINK1 expr mod (lowest first): three from the list above
structure | Six1-Eya2 inh | D2 agonist | CtBP-E1A blk | PINK1 expr mod | Sfp PPTase inh | D2 potentiator
COc1ccc(Nc2nc(N)c(C(=O)c3ccc(OC)cc3)s2)cc1 | 16 | 0.9 | -6 | -1.1% | -25% | -4
O=C(Cn1ncc2c([nH]c3ccccc32)c1=O)N1CCc2ccccc2C1 | 5 | -0.4 | 2 | -0.2% | 21% | -10
CCCC(=O)OCC(=O)Nc1ccccc1Sc1ccccc1 | 31 | -1.8 | 0 | 5.8% | 7% | -11

# Remaining list, next part
SMILES	Six1-Eya2 inh	D2 agonist	CtBP-E1A blk	TRPV1 potentiator	PINK1 expr mod	Sfp PPTase inh	D2 potentiator
Cc1ccc(-n2ncc3c2CC(C)(C)CC3NC(=O)CCc2c(C)noc2C)cc1 (stereo not given)	0	-1.9	4	-12	0.8%	21%	-1
COc1ccc(OC)c(NS(=O)(=O)c2c(C(=O)N3CCCCCC3)c(C)n(C)c2C)c1	0	-4.4	6	4	-1.0%	10%	-1
CC1CCCCC12NC(=O)N(CC(=O)N(C)Cc1nc3ccccc3c(=O)[nH]1)C2=O (stereo not given)	0	-6.1	·	8	1.5%	·	-5
COc1nc(C)ccc1-c1noc(-c2cccs2)n1	12	2.3	12	-22	5.6%	11%	-9
COc1cccc(C(=O)NCCS(=O)(=O)N2CCCC(C)C2)c1 (stereo not given)	8	1.8	-1	·	0.8%	·	-2
COc1ccc(S(=O)(=O)Nc2ccccc2C(=O)N2CCOCC2)cc1F	0	-1.6	9	-7	-1.1%	12%	20
COC(=O)Cn1c(=O)sc2ccccc21	8	0.8	-2	-9	-1.7%	9%	9
CC1CN(Cc2nc3c(c(=O)n(C)c(=O)n3C)n2CC(=O)c2ccccc2)CC(C)O1 (stereo not given)	-1	-2.5	-9	1	0.1%[38.3 µM]	15%	-13
Cc1ccccc1S(=O)(=O)N(C)C[C@@H]1OCc2cnnn2CCCC(=O)N([C@H](C)CO)C[C@H]1C	13	2.1	5	·	1.4%	·	3
COc1cccc(C(=O)Nc2nc3c(c(=O)[nH]2)CCCC3)c1	1	-1.1	-1	-11	-1.3%	16%	-19
CCOc1ccc(S(=O)(=O)N2CCC(C(=O)N3CCCCCC3)CC2)cc1Cl	-2	-3.3	-3	8	-1.5%	-5%	-7
C/C(=N/NC(=O)c1cccs1)c1cccs1	2	-0.8	3	-15	1.4%	15%	-8
O=C(OC1CCOC1=O)c1cc(S(=O)(=O)N2CCOCC2)c(Cl)cc1Cl (stereo not given)	6	1.4	4	-4	-0.7%	·	6
OCC1OC(n2cnc3c(SCc4ccccc4)nc(F)nc32)C(O)C1O (stereo not given)	2	-4.8	11	·	2.1%	·	-8
O=C(NC1CC1)c1ccc2c(c1)ncn2C1CCCC1	1	0.6	1	-1	3.5%[38.3 µM]	-2%	-3
O=C(CCc1c[nH]c2ccccc12)OCc1cccc([N+](=O)[O-])c1	-6	-4.5	-2	-9	-1.1%	4%	-3
CC(C)C(OC(=O)C1=Cc2ccccc2OC1)C(=O)NCC1CCCO1 (stereo not given)	2	-2.8	-20	·	?	·	5
CCN1C(=O)c2ccccc2S(=O)c2ccc(C(=O)NC3CC3)cc21 (stereo not given)	5	-6.6	7	15	-2.1%	-21%	-15
O=C(Nc1cccc(NC(=O)c2cccnc2)c1)c1ccccc1	-8	-2.5	-15	5	-0.7%	18%	-5
CCC(C)(C)n1nnnc1C(c1cccnc1)N1CCCc2ccccc21 (stereo not given)	0	2.4	1	2	0.5%[38.3 µM]	-2%	0
O=C(NC1CCCC1)c1ccc(Br)s1	5	-2.2	6	1	12%[38.3 µM]	15%	-5
CCOC(=O)c1c(NC(=O)COC(=O)Cn2cnc3ccccc32)sc2c1CCC(C)C2 (stereo not given)	14	-2.5	12	5	7.3%	-18%	7
COc1cccc(Cn2c3ccc(NC(=O)Cc4cc(OC)ccc4OC)cc3c(=O)n2C)c1	-8	2.3	-3	·	5.8%	·	-2
CNc1ccc(/C=C2\CSc3ccccc3C2=O)cc1[N+](=O)[O-]	2	-2.3	10	-12	-0.7%	-12%	-3
COc1ccc(-c2nnn(CC(=O)NC3CCCc4ccccc43)n2)cc1OC (stereo not given)	4	0.9	-3	2	-2.2%	-13%	-6
